Compound activity: PubChem, several laboratories
HSV augment = enhancers of HSV replication in host cells, fold increase, host cell viability; maximum fold increase; 0.005% of 220,000 active; HSV replication augmentation in cells;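 active = peak rise of 1.5-fold or more in the series; tested in PC3 cells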;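 also: first round at 10 µM; read as green reporter fluorescence; hits show the peak of a series up to 25 µM; 1 = signal of infected wells without compound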
RGS16-Gao HTS = modulators of RGS16 binding to Galphao, primary screen, biochemical, human proteins, multiplexed bead flow cytometry. bead-based flow cytometry RGS16-Galphao binding, fluorescence; actives lie on both sides. binding response (% of control), % at 10 µM. 0.38% of 220,000 active. AID 1441, 2008;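 active = below 25% or above 175%, edge rows of some plates excepted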;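 also: Galphao activated by GDP with aluminum fluoride before binding; 100% = wells without compound and 0% = beads without RGS; some results beyond the cut were filed as inactive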
Target sequence (O15492 whole entry, looked up): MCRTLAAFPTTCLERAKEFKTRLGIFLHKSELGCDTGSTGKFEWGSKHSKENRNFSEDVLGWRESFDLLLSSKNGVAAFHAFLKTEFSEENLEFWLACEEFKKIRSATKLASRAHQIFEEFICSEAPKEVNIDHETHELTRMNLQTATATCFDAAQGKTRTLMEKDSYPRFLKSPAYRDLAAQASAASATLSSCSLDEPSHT
Target sequence (P09471 whole entry, looked up): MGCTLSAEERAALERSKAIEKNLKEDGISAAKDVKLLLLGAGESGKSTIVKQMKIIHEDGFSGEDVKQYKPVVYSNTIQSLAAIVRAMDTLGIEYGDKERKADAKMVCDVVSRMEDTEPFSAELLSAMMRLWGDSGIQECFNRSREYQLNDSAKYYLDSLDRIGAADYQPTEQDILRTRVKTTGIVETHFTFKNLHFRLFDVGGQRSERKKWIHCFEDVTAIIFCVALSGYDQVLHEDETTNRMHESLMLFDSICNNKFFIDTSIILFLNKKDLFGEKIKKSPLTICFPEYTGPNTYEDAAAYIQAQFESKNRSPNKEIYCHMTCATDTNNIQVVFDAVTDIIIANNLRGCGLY
PKD1 kinase inh = inhibitors of human PKD1 kinase, biochemical, fluorescence polarization; AID 797, 2007; PKD1 kinase fluorescence polarization assay; 0.056% of 200,000 active; inhibition, %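 (about 10 µM by stock and volumes)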;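 active = inhibition of 50% or more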;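 also: controls were vehicle for no effect and a reference inhibitor for full effect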
Insulin prom inh = inhibitors of insulin promoter-driven GFP, primary screen, imaging, TRM-6 cells (human fetal islet line), eGFP reporter, cell count. AID 1273, 2008. reporter expression induced with tamoxifen. 0.9% of 130,000 active. inhibition, % at 2 µM;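 active = inhibition above the mean plus 3 SD, with well images judged a real hit on visual review, cut at about 60% in these data, passing the limit was not always enough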
GALR2 agonist = GALR2 receptor agonists, primary screen, cell-based; AID 803, 2007; activation, %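 (tested at 5 µM)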; Galanin receptor type 2 (Homo sapiens), O43603; 0.48% of 140,000 active; GALR2-expressing cells, agonist activation read-out;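 active = above mean plus 3 SD of all compounds, about 5% in these data, not always enough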;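 also: 0% = vehicle buffer wells and 100% = reference agonist at full effect; tested in CHO reporter cells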
Target sequence (O43603 whole entry, looked up): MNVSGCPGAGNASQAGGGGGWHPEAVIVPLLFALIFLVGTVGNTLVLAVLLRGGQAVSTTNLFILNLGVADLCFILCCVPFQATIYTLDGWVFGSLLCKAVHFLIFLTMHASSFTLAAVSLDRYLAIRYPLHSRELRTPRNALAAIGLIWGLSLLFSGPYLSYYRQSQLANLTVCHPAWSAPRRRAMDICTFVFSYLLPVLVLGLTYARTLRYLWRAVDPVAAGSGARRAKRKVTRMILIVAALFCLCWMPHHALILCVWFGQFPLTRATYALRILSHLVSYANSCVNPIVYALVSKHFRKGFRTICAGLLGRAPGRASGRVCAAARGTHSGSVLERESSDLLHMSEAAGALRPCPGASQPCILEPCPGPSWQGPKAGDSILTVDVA
Insulin prom inh cell count = also measured in Insulin prom inh; calls as there; normalized cell count, %; measured here: cell count, toxicity; reference of the scale not given here;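 cells exposed to compound for 48 h; stained nuclei by imaging scaled within each plate; lower means fewer cells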
HSV augment primary fold = recorded beside HSV augment, whose call it bears; fold increase; compound at 10 µM; measured here: primary screen fold increase 10 uM; tested in PC3 cells;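 GFP signal in the first replicate; 1 = infected wells without compound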
* = called active by the depositor; i = inactive; nt = no result given; & = joins results of further samples.

SMILES	HSV augment	HSV augment primary fold	RGS16-Gao HTS	PKD1 kinase inh	Insulin prom inh	Insulin prom inh cell count	GALR2 agonist
COc1ccc2c(Cl)c(-c3nnco3)sc2c1	i	1	106	-6	36	96	0.4
COCCNC(=O)COc1ccc(Nc2ccccc2)cc1	i	0.75	69	-3	nt	nt	-2.8
Cc1cc(C)n(C(=O)COc2ccccc2[N+](=O)[O-])n1	i	1	99	nt	nt	nt	nt
O=[N+]([O-])c1ccc(NC(=S)NCc2ccncc2)cc1	i	0.98	100	-4	nt	nt	nt
O=C(O)CCn1cc(C(=O)O)c(-c2ccccc2)n1	i	0.96	104	nt	nt	nt	nt
O=C(NCc1ccco1)c1ccc(S(=O)(=O)N2CCCc3ccccc32)cc1	i	0.79	-44*	-10	21	75	-1.0
O=C(NC12CC3CC(CC(C3)C1)C2)OCCNC1CCCCC1	i	0.98	99	nt	nt	nt	nt
Cc1cc(C)n(C(=O)CNC(=O)/C=C/c2ccccc2)n1	i	0.9	103	5	nt	nt	nt
COc1ccc(CNCCC(c2ccc(F)cc2)c2ccc(OC(C)C)cc2)cc1OC (configuration not stated)	i	0.6	109	nt	nt	nt	nt
Cc1cccc(CCNS(=O)(=O)c2ccc(S(=O)(=O)N3CCC(C)CC3)cc2)c1	i	1.1	nt	-1	-43	78	-2.0
CC(C)Cn1cnc2c1c(=O)n(CC(=O)Nc1ccc3c(c1)OCO3)c(=O)n2Cc1ccccc1	i	1	101	-5	-42	64	-0.1
O=c1c(-c2ccccc2)c1-c1ccccc1	i	0.47	99	nt	nt	nt	nt
Cc1nn2c(-c3ccccc3)c(-c3ccccc3)nc2[nH]c1=O	i	0.94	111	-17	18	121	-1.7
CN(C)CCSc1nnc2[nH]c3ccccc3c2n1	i	0.93	105	-7	36	56	-1.2
COc1cccc(NC(=O)Cn2cc3c(n2)CCCCC3)c1	i	0.82	101	0	nt	nt	-1.6
COCON1C(=O)CN(C(C)=O)C1c1ccc(Cl)cc1Cl (configuration not stated)	i	0.82	80	-4	12	102	-3.3
Cc1ccc(N/C(CSC(N)=O)=N/S(=O)(=O)c2ccccc2)cc1	i	0.77	-139	-4	6	78	1.6
CC(C)(C)c1csc(NC(=O)CSc2nc3ccccc3c(=O)[nH]2)n1	i	0.82	112	-22	nt	nt	-2.0
Cn1c(CN2CCC(C(N)=O)CC2)c(C#N)c2ccccc21	i	0.89	48	-4	26	115	-3.7
Cc1cccn2c(=O)c(/C=C(\C#N)C(N)=O)c(Oc3ccccc3)nc12	i	1	100	nt	nt	nt	nt
CN(C)c1ccc(C(=S)N2CCNCC2)cc1	i	0.93	104	-9	-23	107	-2.1
COc1ccc(NC(=O)NS(=O)(=O)c2ccc(C)cc2)c(OC)c1	i	1	72	0	nt	nt	-1.1
N=C(SC1CC(=O)N(c2ccc(F)cc2)C1=O)N1N=C(c2ccccc2)CC1c1ccccc1 (configuration not stated)	i	1	99	-8	nt	nt	nt
Cc1ccc(N2CCN(S(=O)(=O)N3CCCCC3)CC2)cc1Cl	i	0.96	146	-4	70*	86*	-1.8
COCCN1CCN(Cc2nc(C3(c4ccc(C)cc4)CCCC3)no2)CC1	i	1.2	112	3	nt	nt	nt

Pulled by compound from the list above (2):
SMILES	HSV augment	HSV augment primary fold	RGS16-Gao HTS	PKD1 kinase inh	Insulin prom inh	Insulin prom inh cell count	GALR2 agonist
O=[N+]([O-])c1ccc(NC(=S)NCc2ccncc2)cc1	i	0.98	100	-4	nt	nt	nt
CN(C)CCSc1nnc2[nH]c3ccccc3c2n1	i	0.93	105	-7	36	56	-1.2

Next section.
SMILES	HSV augment	HSV augment primary fold	RGS16-Gao HTS	PKD1 kinase inh	Insulin prom inh	Insulin prom inh cell count	GALR2 agonist
Oc1c(C=C2N=c3ccccc3=N2)sc(=S)n1C1CCCCC1	i	1&1.1	125&101	1&-7	-37	82	-0.3&0.8
CS(=O)(=O)N1CCN(C(=O)C(Sc2ccccc2)c2ccccc2)CC1 (configuration not stated)	i	1.1	107	-4	0	124	-2.3
COc1ccc(CNCC(=O)Nc2sccc2C#N)cc1	i	1.2	91	-6	6	60	nt
Cc1nc(-c2ccc(NS(=O)(=O)c3ccccc3)cc2)cs1	i	1.1	103	4	0	148	nt
CC(c1ccco1)N(C(=O)COc1ccc(Cl)cc1Cl)c1ccccn1 (configuration not stated)	i	0.76	95	-5	-42	232	-3.8
COc1cccc(CNCCO)c1OCc1ccccc1Cl	i	0.95	106	-1	nt	nt	0.0
N#Cc1cccc(N=c2ssnc2Cl)c1	i	1	68	-6	-7	38	nt
Cc1cc2c3c(c1)C1(C(=O)N3C(C)(C)CC2C)C(C#N)=C(N)Oc2n[nH]c(C)c21 (configuration not stated)	i	0.94	110	-2	69	153	-3.5
CCNC(=S)N=Nc1c(O)n(Cc2ccc(Cl)cc2)c2ccccc12	i	0.9	111	-1	23	137	-3.5
COc1ccc(OC(=O)c2c(C)nn(-c3ccccc3)c2C)cc1	i	0.97	110	nt	nt	nt	nt
N#Cc1nc(COc2ccccc2F)oc1NCCc1ccccc1	nt	nt	102	-6	nt	nt	0.5
Cc1nc(CN2CCN(C(=O)NC3(c4ccccc4)CC3)CC2)cs1	i	0.88	110	-4	38	123	-2.1
CC(=O)c1cccc(NC(=O)c2cnn3ccccc23)c1	i	1.1	105	-4	nt	nt	-2.0
Cc1ccc(/C=N/N2CCN(c3ccccn3)CC2)o1	i	0.92	98	nt	nt	nt	nt
COCCNC(=O)C(c1ccc(OC)cc1)N(C(=O)Cn1nnc2ccccc21)c1cccnc1 (configuration not stated)	i	1	100	1	-21	169	nt
O=C(CNC(=O)c1ccco1)Nc1ccc(F)cc1	i	0.96	100	-4	nt	nt	nt
COc1ccc(NS(=O)(=O)c2cc(NC(=O)Cc3cccs3)ccc2C)cc1	i	0.66	108	0	nt	nt	-0.5
O=C1CC(C(=O)O)S/C(=N\N=C\c2ccc(Br)cc2)N1 (configuration not stated)	i	1.1	98	nt	nt	nt	nt
CSCC[C@H](NC(=O)OC(C)(C)C)C(=O)N/N=C/c1c(C)[nH]c(=O)[nH]c1=O	nt	nt	151	8	14	96	-3.2
O=C(COC(=O)c1cccs1)NCc1ccccc1	i	1	117	1	-21	113	0.4
COc1ccc(Cl)cc1NC(=O)CN(C1CCCCC1)S(C)(=O)=O	i	0.91	97	-15	-150	112	-1.3
Cc1ccc(NC(=O)CN(C)S(=O)(=O)c2cccs2)cc1C	i	0.62	101	-3	-8	98	-1.7
Cc1cc(C(C)(C)C)oc1C(=O)O	i	1	108	11	47	62	nt
Cc1ccc2c(c1)C(=O)CC1(CCC(C(C)(C)C)CC1)O2 (configuration not stated)	i	0.92	101	nt	nt	nt	nt
O=P(Cc1ccccc1O)(c1ccccc1)c1ccccc1	i	0.98	97	10	-16	119	-0.7

Additional entries:
SMILES	HSV augment	HSV augment primary fold	RGS16-Gao HTS	PKD1 kinase inh	Insulin prom inh	Insulin prom inh cell count	GALR2 agonist
COc1cc(NS(=O)(=O)c2ccc(NC(=S)NC(=O)/C=C/c3ccc(OC)c(OC)c3)cc2)ncn1	i	0.76	101	2	nt	nt	nt
CCn1cc(/C=C(/C#N)S(=O)(=O)c2ccccc2)cn1	i	1.1	96	-6	-21	143	-0.8
Fc1ccc(CN2CCCCCCC2)cc1F	i	0.86	100	7	nt	nt	-0.8
O=C(N/N=C/c1cc([N+](=O)[O-])ccc1O)NC12CC3CC(CC(C3)C1)C2	i	1.1	99	9	-94	57	-2.2
N#Cc1c(N)nc2c(c1-c1ccc(Br)s1)CCCC2	i	0.99	105	-3	nt	nt	-0.7
COC(=O)CCCC1=CC2=C(c3ccccc3)C(=O)C(C)(OC(=O)C3CCCC3)C(=O)C2=CN1C1CC1 (configuration not stated)	i	1	72	nt	nt	nt	nt
COc1cc(OC)c2c(=O)cc(-c3ccccc3)oc2c1	nt	nt	102	0	nt	nt	nt
COc1ccc(NC(=O)CN2CCCN(S(=O)(=O)c3ccc(F)cc3)CC2)c(OC)c1	i	1.1	104	9	nt	nt	nt
COC(=O)c1ccccc1NC(=O)N1CCN(S(C)(=O)=O)CC1	i	0.99	97	-6	nt	nt	nt
Cc1ccc(S(=O)(=O)NCC(=O)NC2CCCCCC2)cc1	i	0.93	95	3	-22	88	-0.5
Cc1cc(Cl)ccc1C(=O)C1CCCN(C(=O)c2ccc3ncccc3c2)C1 (configuration not stated)	i	0.97	107	5	-22	150	nt
CCN(C(=O)CSc1nnc(-c2ccccc2)n1C)C1CCS(=O)(=O)C1 (configuration not stated)	i	0.95	99	-11	nt	nt	nt
CCS(=O)(=O)c1ccc(Sc2nncn2C)c([N+](=O)[O-])c1	nt	nt	94	-4	54	67	nt
CCCNC(=O)c1cc(C)no1	i	1.2	95	-5	13	119	-4.3
O=C(NCc1ccc(F)cc1)C(=O)NCC1OCCN1C(=O)c1cccs1 (configuration not stated)	i	1	102	-11	nt	nt	-1.7
CCOC(=O)C1CCCN(CCC(=O)Nc2c(C(=O)OC)[nH]c3cc(OC)ccc23)C1 (configuration not stated)	i	0.83	101	4	27	122	-0.7

Some of these compounds in order of the HSV augment primary fold value, lowest first:
| SMILES | HSV augment primary fold | RGS16-Gao HTS | PKD1 kinase inh | GALR2 agonist |
| --- | --- | --- | --- | --- |
| CC(c1ccco1)N(C(=O)COc1ccc(Cl)cc1Cl)c1ccccn1 (configuration not stated) | 0.76 | 95 | -5 | -3.8 |
| Fc1ccc(CN2CCCCCCC2)cc1F | 0.86 | 100 | 7 | -0.8 |
| CN(C)c1ccc(C(=S)N2CCNCC2)cc1 | 0.93 | 104 | -9 | -2.1 |

16 entries from above, with bars between the fields:
SMILES | HSV augment | HSV augment primary fold | RGS16-Gao HTS | PKD1 kinase inh | Insulin prom inh | Insulin prom inh cell count | GALR2 agonist
O=P(Cc1ccccc1O)(c1ccccc1)c1ccccc1 | i | 0.98 | 97 | 10 | -16 | 119 | -0.7
COc1cc(NS(=O)(=O)c2ccc(NC(=S)NC(=O)/C=C/c3ccc(OC)c(OC)c3)cc2)ncn1 | i | 0.76 | 101 | 2 | nt | nt | nt
CCn1cc(/C=C(/C#N)S(=O)(=O)c2ccccc2)cn1 | i | 1.1 | 96 | -6 | -21 | 143 | -0.8
Fc1ccc(CN2CCCCCCC2)cc1F | i | 0.86 | 100 | 7 | nt | nt | -0.8
O=C(N/N=C/c1cc([N+](=O)[O-])ccc1O)NC12CC3CC(CC(C3)C1)C2 | i | 1.1 | 99 | 9 | -94 | 57 | -2.2
N#Cc1c(N)nc2c(c1-c1ccc(Br)s1)CCCC2 | i | 0.99 | 105 | -3 | nt | nt | -0.7
COC(=O)CCCC1=CC2=C(c3ccccc3)C(=O)C(C)(OC(=O)C3CCCC3)C(=O)C2=CN1C1CC1 (configuration not stated) | i | 1 | 72 | nt | nt | nt | nt
COc1cc(OC)c2c(=O)cc(-c3ccccc3)oc2c1 | nt | nt | 102 | 0 | nt | nt | nt
COc1ccc(NC(=O)CN2CCCN(S(=O)(=O)c3ccc(F)cc3)CC2)c(OC)c1 | i | 1.1 | 104 | 9 | nt | nt | nt
COC(=O)c1ccccc1NC(=O)N1CCN(S(C)(=O)=O)CC1 | i | 0.99 | 97 | -6 | nt | nt | nt
Cc1ccc(S(=O)(=O)NCC(=O)NC2CCCCCC2)cc1 | i | 0.93 | 95 | 3 | -22 | 88 | -0.5
Cc1cc(Cl)ccc1C(=O)C1CCCN(C(=O)c2ccc3ncccc3c2)C1 (configuration not stated) | i | 0.97 | 107 | 5 | -22 | 150 | nt
CCN(C(=O)CSc1nnc(-c2ccccc2)n1C)C1CCS(=O)(=O)C1 (configuration not stated) | i | 0.95 | 99 | -11 | nt | nt | nt
CCS(=O)(=O)c1ccc(Sc2nncn2C)c([N+](=O)[O-])c1 | nt | nt | 94 | -4 | 54 | 67 | nt
CCCNC(=O)c1cc(C)no1 | i | 1.2 | 95 | -5 | 13 | 119 | -4.3
O=C(NCc1ccc(F)cc1)C(=O)NCC1OCCN1C(=O)c1cccs1 (configuration not stated) | i | 1 | 102 | -11 | nt | nt | -1.7
